SARS PLP yeast: qHTS of Yeast-based Assay for SARS-CoV PLP; AID 485353, 2010; S. cerevisiae expressing SARS-CoV PLpro, growth rescue; control for the full effect not named in the record; Potency, µM (titrated, usually from 32.9 µM), for the others: at the highest dose activity, positive = growth rescue; 330,000 tested, 0.19% active; active means well fitted rising curve with a large enough effect; inconclusive means small, poorly fitted or top-dose-only effect; inactive means no such curve, though single readings can be large or run the other way; further: 0% is about no effect; nearly all actives have a fitted effect of over 55% in size; growth read by luminescence after 48 h
RE007 growth inh: qHTS Assay for Inhibitors of the HIV-1 protein Vpr. S. pombe RE007 Vpr strain, BacTiter-Glo ATP luminescence, 24 h; control for the full effect not named in the record. Potency, µM (titrated, usually from 92.2 µM), inactives show top-dose activity change, negative = less growth. 360,000 tested, 0.21% active; active = well fitted falling curve with a large enough effect; inconclusive = small, poorly fitted or top-dose-only effect; inactive = no such curve, though single readings can be large or run the other way;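 further: on the % scale 0 is the no-effect control and ±100 the full control effect; nearly all actives have a fitted effect of over 50% in size; the assay follows cell death caused by Vpr and the record does not say whether a fall means rescue or toxicity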
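Fission yeast RE007 carrying one integrated HIV-1 vpr copy, seeded at OD 0.01 in PMG+AL medium with 23 nL pinned compound. Grown 24 h at 30 degrees; viability read by BacTiter-Glo luminescence after 5 min.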
Cruzain inh noDet: qHTS Assay for Promiscuous and Specific Inhibitors of Cruzain (without detergent). Cruzipain (Trypanosoma cruzi), P25779. purified cruzain, Z-FR-AMC fluorescence, no detergent. Potency, µM, for the others: max response, negative = inhibition, hits mostly inhibitors. 200,000 tested, 2.3% active;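 further: plate controls were enzyme without inhibitor for no effect and buffer without enzyme for full effect; nearly all actives have a fitted effect of over 40% in size; top concentration of the series not given in the record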
Target sequence (P25779 123-467 limits assumed): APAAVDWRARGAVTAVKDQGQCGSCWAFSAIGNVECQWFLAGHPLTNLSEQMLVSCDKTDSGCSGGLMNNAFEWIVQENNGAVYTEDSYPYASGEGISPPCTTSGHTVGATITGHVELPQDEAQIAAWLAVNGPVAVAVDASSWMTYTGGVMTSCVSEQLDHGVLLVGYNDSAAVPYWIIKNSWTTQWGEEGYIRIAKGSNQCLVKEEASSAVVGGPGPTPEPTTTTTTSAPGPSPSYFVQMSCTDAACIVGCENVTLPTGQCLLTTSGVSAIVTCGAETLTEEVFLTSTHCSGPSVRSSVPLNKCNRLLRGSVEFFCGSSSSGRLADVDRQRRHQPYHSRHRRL
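Purified cruzain at 1.5 nM, pre-incubated 15 min with compound at room temperature in 100 mM sodium acetate pH 5.5, 5 mM DTT, 0.00005% Triton X-100. Reaction started with 2 uM Z-FR-AMC; AMC fluorescence increase over 60 s gives rate.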
NS1 inh: qHTS Assay for Inhibitors of Influenza NS1 Protein Function | 270,000 tested, 0.4% active | S. cerevisiae slowed by influenza A NS1, growth recovery by OD600 | Potency, µM (top dose mostly 46.1 µM), inactives show at the top dose activity, positive = more growth; active means well fitted rising curve with a large enough effect; inconclusive means small, poorly fitted or top-dose-only effect; inactive means no such curve, though single readings can be large or run the other way; further: nearly all actives have a fitted effect of over 50% in size
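Compounds were scored for reversing the slow growth caused by influenza A NS1 in S. cerevisiae, measured by optical density at 600 nm. Assay medium contained 2% galactose at pH 6.0; NS1-free yeast of the same strain were the positive control.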
MARV entry inh: qHTS for inhibitors of binding or entry into cells for Marburg Virus; 300,000 tested, 1.8% active; Potency, µM (top dose mostly 37.8 µM), for inactives: at the highest dose activity change, negative = inhibition, actives largely listed as inhibitors; Marburg virus pseudotyped entry inhibition, cell reporter; control for the full effect not named in the record; about a third of the inactives were read at about 46 µM; active = well fitted inhibition curve with a large enough effect; inconclusive = small, poorly fitted or top-dose-only effect, or effect the other way; inactive = flat fitted curve, though single readings scatter; tested in HEK293 cells; about a fifth of its hits are not listed in these tables; further: on the % scale 0 is the no-effect control and ±100 the full control effect; luciferase read-out
Cruzain inh Det: qHTS Assay for Promiscuous and Specific Inhibitors of Cruzain (with detergent) | purified cruzain, Z-FR-AMC fluorescence, 0.01% Triton | Potency, µM, without a hit: max response, negative = inhibition, hits mostly inhibitors | 200,000 tested, 0.43% active | Cruzipain (Trypanosoma cruzi), P25779;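 further: plate controls were neutral wells for no effect and buffer without enzyme for full effect; nearly all actives have a fitted effect of over 40% in size; top concentration of the series not given in the record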
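Sodium acetate buffer (100 mM, pH 5.5) containing 5 mM DTT and 0.01% Triton X-100 hosted 1.5 nM cruzain and test compound for 15 min at room temperature. Cleavage of 2 uM Z-FR-AMC was then tracked by fluorescence.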
2A StopGo: High Throughput Screening for Foot and Mouth Disease Virus Antivirals; 410,000 tested, 1.2% active; human cells with a luciferase reporter of 2A StopGo recoding; control for the full effect not named in the record; Potency, µM (highest dose often 57.9 µM), without a hit: top-dose signal change, negative = less light; AID 1159524, 2015; active = well fitted falling curve with a large enough effect; inconclusive = small, poorly fitted or top-dose-only effect; inactive = no such curve, though single readings can be large or run the other way; tested in HEK293T cells; further: on the % scale 0 is the no-effect control and ±100 the full control effect; nearly all actives have a fitted effect of over 45% in size; luciferase light after 4 h
Lassa entry inh: qHTS for Inhibitors of binding or entry into cells for Lassa Virus | Lassa virus pseudotype entry inhibition, cell reporter; control for the full effect not named in the record | Potency, µM (doses to about 37.9 µM), inactives show top-dose activity change, negative = inhibition, usual class: inhibitors | 300,000 tested, 1.2% active; active means well fitted inhibition curve with a large enough effect; inconclusive means small, poorly fitted or top-dose-only effect, or effect the other way; inactive means flat fitted curve, though single readings scatter; tested in HEK293 cells; further: on the % scale 0 is the no-effect control and ±100 the full control effect; nearly all actives have a fitted effect of over 50% in size; luciferase read-out
The depositor's hits bear a star; [ ] = remark or other dose. Unless noted, the call rests on the fitted dose curve; in most records, active means well fitted curve in the direction sought with a large enough effect; inconclusive means small, poorly fitted or top-dose-only effect, or another doubt; inactive means no such curve, though single readings can be large; an effect the other way counts as inactive or inconclusive. Potency means the concentration at half of the fitted maximal effect.

How did CCc1ccccc1NC(=O)Nc1nnc(N(CC)c2ccccc2)s1 do in these assays?
Cruzain inh noDet: 17%; MARV entry inh: -14%[46.1 µM]; Cruzain inh Det: -3.7%; 2A StopGo: -5%; Lassa entry inh: -8%[46.1 µM]

What do the screens show for `O=C(NC(C(=O)c1ccccc1)n1ccc(=O)[nH]c1=O)c1ccccc1` (stereo not drawn)?
SARS PLP yeast: 16%; RE007 growth inh: -12%; Cruzain inh noDet: 1%; NS1 inh: 3%; MARV entry inh: 22%; Cruzain inh Det: 1.3%; 2A StopGo: 22%; Lassa entry inh: 10%

Results for CCOC(=O)C(Cc1ccccc1)C(=O)Nc1cccc(C)c1 (stereo not drawn) ?
SARS PLP yeast: 22µM*; RE007 growth inh: -29%; Cruzain inh noDet: 2%; NS1 inh: -18%; MARV entry inh: -3%; Cruzain inh Det: 0.4%; 2A StopGo: 2%; Lassa entry inh: 14%

How did CCc1nnc2n1N=C(c1ccccc1)CS2 do in these assays?
SARS PLP yeast: -2%; RE007 growth inh: -1%; NS1 inh: 0%; 2A StopGo: -13%

What do the screens show for `Cc1cccc(C(=O)Nc2ccc3c(c2)CC2(C(=O)N(C)C(=O)N(C)C2=O)C2CCCN32)c1` (stereo not drawn)?
SARS PLP yeast: -2%; RE007 growth inh: -9%; NS1 inh: 16%; 2A StopGo: 1%

How did CCc1ccc(S(=O)(=O)c2nnn3c2nc(NCCNC(C)=O)c2cc(Cl)ccc23)cc1 do in these assays?
Cruzain inh noDet: 2%; MARV entry inh: -25%[46.1 µM]; Cruzain inh Det: -0.8%; 2A StopGo: 25%

Results for Cc1ccc(-n2c(-c3cccs3)nc3nc4ccccc4nc32)cc1 ?
SARS PLP yeast: 16%; Cruzain inh noDet: -7%; NS1 inh: 11%; Cruzain inh Det: -6.3%

What do the screens show for `Clc1ccc(-n2nnnc2-c2cnc3ccc(Cl)cc3c2-c2ccccc2)cc1`?
SARS PLP yeast: 1%; RE007 growth inh: 0%; NS1 inh: -22%; MARV entry inh: inconclusive; 2A StopGo: -25%; Lassa entry inh: 5%[46.1 µM]

Results for O=C(Nc1nc(-c2ccco2)cs1)c1ccccc1 ?
SARS PLP yeast: -16%; RE007 growth inh: inconclusive; Cruzain inh noDet: -20%; NS1 inh: -53%; MARV entry inh: 1%[46.1 µM]; Cruzain inh Det: -9.7%; 2A StopGo: 0%; Lassa entry inh: inconclusive

What do the screens show for `CC(=O)Nc1ccccc1OCC(=O)c1cc(C)n(Cc2cccs2)c1C`?
SARS PLP yeast: -12%; RE007 growth inh: 6%; Cruzain inh noDet: 3%; NS1 inh: -43%; MARV entry inh: inconclusive; Cruzain inh Det: 0.4%; 2A StopGo: inconclusive; Lassa entry inh: -30%

Results for CC1=C(C(=O)OCC2CCCO2)C(c2ccccc2)C2=C(CCCC2=O)N1 (stereo not drawn) ?
SARS PLP yeast: 1%; RE007 growth inh: 2%; MARV entry inh: -6%[46.1 µM]; 2A StopGo: -6%; Lassa entry inh: 19%[46.1 µM]

How did Cc1ccc(S(=O)(=O)N(CC(=O)Nc2ccccc2-c2ccccc2)c2ccc(C)cc2C)cc1 do in these assays?
SARS PLP yeast: -4%; RE007 growth inh: 31%; Cruzain inh noDet: inconclusive; NS1 inh: 7%; MARV entry inh: inconclusive; Cruzain inh Det: 0.0%; 2A StopGo: -19%; Lassa entry inh: inconclusive

Results for CC1OC2C(OC1C)N(S(C)(=O)=O)CCN2S(C)(=O)=O (stereo not drawn) ?
SARS PLP yeast: 10%; RE007 growth inh: -2%; Cruzain inh noDet: 2%; NS1 inh: 7%; MARV entry inh: 14%; Cruzain inh Det: 3.8%; 2A StopGo: -8%; Lassa entry inh: -5%

How did COC(=O)Nc1ccc(S(=O)(=O)NCCCCCC(=O)O)cc1 do in these assays?
SARS PLP yeast: 0%; RE007 growth inh: -5%; NS1 inh: 0%; MARV entry inh: -3%[46.1 µM]; 2A StopGo: 8%; Lassa entry inh: -4%

What do the screens show for `COc1ccc(-n2c(C)c(C)c3c(N)ncnc32)cc1`?
SARS PLP yeast: -11%; RE007 growth inh: 5%; NS1 inh: 5%; MARV entry inh: -1%[46.1 µM]; 2A StopGo: 17%; Lassa entry inh: 6%[46.1 µM]

How did NC(=O)OCCSc1nnc(-c2cccc(C(N)=S)c2)o1 do in these assays?
SARS PLP yeast: 15%; RE007 growth inh: -4%; Cruzain inh noDet: -3%; NS1 inh: 0%; MARV entry inh: -8%; Cruzain inh Det: 2.3%; 2A StopGo: -19%; Lassa entry inh: -4%

What do the screens show for `Cc1ccc(-n2nc(C)c3c2OC(N)=C(C#N)C3c2ccc(F)cc2)cc1` (stereo not drawn)?
SARS PLP yeast: 1%; RE007 growth inh: -15%; Cruzain inh noDet: 9%; NS1 inh: -1%; MARV entry inh: inconclusive; Cruzain inh Det: 3.2%; 2A StopGo: inconclusive; Lassa entry inh: 1%

Results for CC(C)(CNC(=O)COc1ccccc1Cc1ccccc1)N1CCOCC1 ?
SARS PLP yeast: -1%; RE007 growth inh: 4%; MARV entry inh: -18%[46.1 µM]; 2A StopGo: -4%; Lassa entry inh: 3%

What do the screens show for `O=C(CSc1ccccn1)Nc1ccc(Br)cn1`?
SARS PLP yeast: -8%; RE007 growth inh: -22%; Cruzain inh noDet: -5%; NS1 inh: 4%; MARV entry inh: inconclusive; Cruzain inh Det: -1.1%; 2A StopGo: 31%[activator]; Lassa entry inh: 11%

How did COc1ccc(C2SCC(C(=O)NCc3ccc(F)cc3)N2C(C)=O)cc1 (stereo not drawn) do in these assays?
SARS PLP yeast: -3%; RE007 growth inh: 10%; Cruzain inh noDet: 0%; NS1 inh: 0%; Cruzain inh Det: -1.3%; 2A StopGo: -29%

What do the screens show for `CCOc1ccc(NC(=O)Cn2c(=O)n(-c3cccc(Cl)c3)c(=O)c3c2c2cc(C)ccc2n3C)cc1`?
Cruzain inh noDet: -3%; MARV entry inh: -9%[46.1 µM]; Cruzain inh Det: 1.9%; 2A StopGo: -15%; Lassa entry inh: 23%[46.1 µM]

Results for CCOC(=O)c1ccc(NC(=O)c2nc[nH]c2C(=O)NCc2ccccc2)cc1 ?
SARS PLP yeast: 4%; RE007 growth inh: -3%; NS1 inh: 8%; 2A StopGo: -28%

How did CCCOC1CCCN(C(=O)CCc2nnc(-c3ccc4c(c3)OCO4)o2)C1 (stereo not drawn) do in these assays?
SARS PLP yeast: 2%; RE007 growth inh: 0%; NS1 inh: -11%; MARV entry inh: 24%; 2A StopGo: 22%; Lassa entry inh: 13%

Results for COc1ccc(Cn2c(C3CC3)nc3ccc(NC(=O)c4cccnc4)cc3c2=O)cc1 ?
SARS PLP yeast: -1%; RE007 growth inh: 0%; NS1 inh: 3%; MARV entry inh: inconclusive; 2A StopGo: 0%; Lassa entry inh: -26%

What do the screens show for `O=C(N/N=C/c1cc(Br)c(Br)o1)c1ccc2c(c1)OCCO2`?
SARS PLP yeast: 1%; RE007 growth inh: -15%; NS1 inh: 9%; MARV entry inh: inconclusive; 2A StopGo: 5%; Lassa entry inh: -15%

How did Cc1ccc(CNCCc2ccc(F)cc2)s1 do in these assays?
SARS PLP yeast: 0%; RE007 growth inh: -17%; NS1 inh: 4%; MARV entry inh: inconclusive; 2A StopGo: -11%; Lassa entry inh: 18%[46.1 µM]

Results for Cc1cc(N)n2nc(-c3ccccc3)cc2n1 ?
SARS PLP yeast: -66%; RE007 growth inh: inconclusive; Cruzain inh noDet: 1%; NS1 inh: -20%; MARV entry inh: 8.9µM*; Cruzain inh Det: -4.1%; 2A StopGo: -28%; Lassa entry inh: inconclusive

Results for COc1ccc(C(=O)CC2OC(=O)c3ccccc32)cc1OC (stereo not drawn) ?
SARS PLP yeast: 5%; RE007 growth inh: -2%; Cruzain inh noDet: 1%; NS1 inh: 4%; MARV entry inh: -3%; Cruzain inh Det: -5.7%; 2A StopGo: -11%; Lassa entry inh: 4%

Results for Cc1ccccc1OCC(O)Cn1c(=N)n(Cc2ccccc2)c2ccccc21 (stereo not drawn) ?
SARS PLP yeast: 0%; RE007 growth inh: 9%; NS1 inh: 1%; MARV entry inh: inconclusive; 2A StopGo: inconclusive; Lassa entry inh: inconclusive

Results for COC(=O)[C@H](C)NC(=O)NC(C)CCc1ccccc1 (stereo partly drawn) ?
SARS PLP yeast: -6%; RE007 growth inh: 10%; Cruzain inh noDet: -1%; NS1 inh: -2%; MARV entry inh: -3%; Cruzain inh Det: 4.0%; 2A StopGo: -19%; Lassa entry inh: 18%

What do the screens show for `CC(CNC(=O)CCCn1c(=O)c2cccn2c2ccccc21)c1ccccc1` (stereo not drawn)?
Cruzain inh noDet: -2%; Cruzain inh Det: -5.9%; 2A StopGo: -22%; Lassa entry inh: 11%[46.1 µM]

What do the screens show for `Nc1ccc(C(=O)OCc2nc3cc4ccccc4cc3[nH]2)cc1`?
SARS PLP yeast: 2%; RE007 growth inh: -11%; MARV entry inh: 1.6µM*; 2A StopGo: 20%; Lassa entry inh: 2.6µM*

What do the screens show for `COc1ccccc1CCNC(=O)C(=O)NCC1OCCN1S(=O)(=O)c1ccc(OC)c(OC)c1` (stereo not drawn)?
SARS PLP yeast: -4%; RE007 growth inh: -1%; NS1 inh: 4%; 2A StopGo: -4%

What do the screens show for `CCOC(=O)c1noc2nc(C)n(CC(=O)NC(C)CC)c(=O)c12` (stereo not drawn)?
Cruzain inh noDet: 5%; Cruzain inh Det: 0.9%; 2A StopGo: -24%; Lassa entry inh: 12%[46.1 µM]

High-throughput results (PubChem)
